PABP FP inh: blocks human PABP binding to poly(A) RNA | fluorescence polarization | AID 2014 | inhibition, % at 35 µM | hit rate 1% among 290,000;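 active = 50% or more with normal probe brightness, or confirmed in later tests; inconclusive = above 50% with abnormal brightness, or retests that disagree; inactive = below 50% or failed in later tests; about a fifth of its hits are not listed in these tables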;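 also: calls also rest on retests at 20 µM and on dose response follow-up; controls were probe without protein and protein plus probe with vehicle; some compounds called inactive have numbers as strong as hits; many hits fall short of the cut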
CSC inhib: blocks cancer stem cells; cancer stem cell-like cells viability, luminescence; inhibition, % at 7.5 µM; hit rate 1.1% among 300,000; AID 2717;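 active = mean at 75% or more and at least half the replicates too; inconclusive = mean and replicates disagree; tested in HMLE shEcad cells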;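 also: 0% = median of negative and 100% = median of positive control wells; the first replicate is given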
Yeast UUG start: alters start codon recognition fidelity in yeast | S. cerevisiae UUG-firefly luciferase reporter, luminescence/redox ratio | activity score, % at 18.7 µM | hit rate 0.13% among 350,000;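 active = replicate mean at a twofold rise or more, about +100% in these data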;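 also: firefly luciferase made from a UUG start codon reports start codon fidelity; reporter light over untreated wells divided by growth signal over untreated wells; some hits fall short of that in this replicate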
HIV Env fusion: blocks HIV Env-driven cell-cell fusion. HeLa-JRFL Env/CEM21 cell fusion, luciferase. inhibition, % at 12.3 µM. hit rate 1.1% among 360,000. AID 651610;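 active = mean replicate inhibition score of at least 50 and every replicate individually at or above 50; inconclusive = only one of the two criteria met; inactive = mean below 50 and not all replicates reaching 50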;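 also: 0% = plate neutral controls and 100% = maraviroc near 300 nM; one replicate is shown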
eIF4H FP inh: inhibitors of RNA binding by human eIF4H; AID 2012; hit rate 0.94% among 290,000; eIF4H fluorescence polarization binding assay; Q15056; inhibition, % at 35 µM;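 active = 50% or more with normal probe brightness, or confirmed in later tests; inconclusive = above 50% with abnormal brightness, or retests that disagree; inactive = below 50% or failed in later tests; about a fifth of its hits are not listed in these tables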;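 also: calls also rest on retests at 20 µM and on dose response follow-up; 0% = protein and probe with vehicle and 100% = probe without protein; strong numbers were not always called active; many hits fall short of the cut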
Rce1 inhib: inhibitors of yeast Ras-converting enzyme. calls only. yeast membranes, quenched prenylated peptide cleavage fluorescence. Q03530. hit rate 0.27% among 290,000;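 active = fall in fluorescence gain of 50% or more versus controls, with final raw signal at or below 3038400; inconclusive = same 50% fall but final raw signal above 3038400; inactive = fall in fluorescence gain under 50%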;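 also: plate controls were neutral control wells for no effect and wells lacking membranes for full effect; tested at 10 µM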
Target sequence (Q03530 whole entry, looked up): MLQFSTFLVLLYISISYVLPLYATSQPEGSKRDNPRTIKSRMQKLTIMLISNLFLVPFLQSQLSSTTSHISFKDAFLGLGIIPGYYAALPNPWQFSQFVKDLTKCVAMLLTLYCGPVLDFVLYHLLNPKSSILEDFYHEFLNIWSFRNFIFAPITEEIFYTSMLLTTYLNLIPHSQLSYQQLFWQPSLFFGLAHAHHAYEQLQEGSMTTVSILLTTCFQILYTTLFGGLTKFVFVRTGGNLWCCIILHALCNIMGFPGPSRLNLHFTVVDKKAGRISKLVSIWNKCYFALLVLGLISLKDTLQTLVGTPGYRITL
MT1-MMP act inh: inhibitors of human MT1-MMP activation; hit rate 0.061% among 360,000; GFP/RFP ratio change, % at 20 µM; P50281; HT1080 RFP-PRO-GFP cells, GFP/RFP ratio fluorescence, overnight; percent of plate control window, DMSO zero;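 active = GFP/RFP ratio change of at least 30% with cell ATP level not reduced by more than half and red fluorescence within 50% of control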; also: strong numbers were not always called active
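Assay system – RFP-PRO-GFP reporter HT1080 cells · Compound dosing – single dose of 20 µM compound, 1% DMSO final · Incubation – overnight compound exposure at 37 °C · Measure – GFP/RFP fluorescence ratio · Benchmarks – DMSO wells and RFP-L50D-GFP cells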
MT1-MMP act inh RFP: recorded beside MT1-MMP act inh, whose call it bears; RFP signal change, %; measured here: RFP expression control read;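 0 = vehicle wells; hits needed this value within 50% of zero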
An asterisk follows results filed as active; i = inactive; ? = inconclusive; nt = no result given; & = joins results of further samples.

SMILES	PABP FP inh	CSC inhib	Yeast UUG start	HIV Env fusion	eIF4H FP inh	Rce1 inhib	MT1-MMP act inh	MT1-MMP act inh RFP
O=S(=O)(Nc1ccc(S(=O)(=O)Nc2cccc3ccccc23)cc1)c1ccccc1	5	11	0	-97	-5	i	-4	-4
CC(=O)NC(CC(=O)OC(C)C(=O)Nc1ncc(Cl)cc1Cl)c1ccccc1 (stereo unspecified)	-5	-5	-8	-17	-6	i	1	0
O=C(CSc1nnc(CNc2ccc(F)cc2)o1)c1ccccc1	-1	-14	nt	5	-8	i	2	2
Cc1nc([N+](=O)[O-])cn1CCCCN1C(=O)c2ccccc2C1=O	-4	2	-9	-35	-4	i	-1	4
CC(C)(C)N(Cc1ccccc1)C(=O)COC(=O)CSc1ccc([N+](=O)[O-])cc1	nt	-14	2	-1	nt	i	-1	-2
CCCc1nc(SCC(=O)NC2CC2)c2c(C)c(C)sc2n1	4	-8	-9	15	2	i	-4	-5
O=C(CCCOC(=O)c1cccnc1Cl)c1ccc(Br)cc1	nt	-1	-12	nt	nt	nt	5	-2
Cc1oc(C)c(C(=O)O)c1COc1ccc(C(=O)O)cc1	4	14	-29	-26	-2	i	1	3
Brc1cccc(CNCCCN2CCOCC2)c1	5	-17	-12	-63	-12	i	0	0
COc1ccc(CCNC(=O)c2cc(=O)c3cc(C)ccc3o2)cc1	-4	4	-10	11	-4	i	-1	-2
COc1cccc(/C=N/NC(=O)CCc2n[nH]c(=O)[nH]c2=O)c1O	12	8	nt	4	7	i	1	2
C#CCOCCOCCOCCNc1nc(N2CCN(C(=O)[C@H](Cc3ccc(O)cc3)n3cc(CCO)nn3)CC2)nc(N2CCN(C(=O)[C@H](Cc3ccc(O)cc3)n3cc(CCO)nn3)CC2)n1	19	-14	nt	nt	-5	i	nt	nt
O=C(COC(=O)CCC(=O)c1ccccc1)NCCc1ccccc1	nt	-4	-5	8	nt	i	-2	-1
CC(C)(C)C(=O)COC(=O)CCc1nc2ccccc2[nH]c1=O	-7	1	nt	-15	1	i	-5	0
Cc1c2cnn(CC(=O)N3CCOCC3)c(=O)c2c(C)n1Cc1ccccc1F	-12	-1	0	8	-3	i	-1	6
Cc1cc(C(=O)N2CCN(c3cc(Cl)ccc3C)CC2)on1	-1	0	-1	-3	-23	i	0	-2
Cc1cc(NC(=O)CSc2nc3cc(C(=O)NCCCOC(C)C)ccc3c(=O)n2Cc2ccco2)no1	3	-6	-17	15	0	i	1	-3
CCOc1ccc(CNC(=O)C2CCN(S(=O)(=O)c3ccc4c(c3)CCCC(=O)N4)CC2)cc1	-3	-11	-24	3	-14	i	2	-3
COc1cc(NS(=O)(=O)c2ccc(Br)cc2)c(OC)cc1NC(=O)c1ccco1	5	nt	nt	8	-7	i	-2	-5
Clc1cccc(-c2cc3nc4c(c(N5CCN(c6cnccn6)CC5)n3n2)CCCC4)c1	-9	6	-21	nt	1	i	-16	-15
Cc1cc(C)c(C(=O)COC(=O)c2cccnc2Cl)c(C)c1	-3	-2	nt	-9	-6	i	0	1
COc1ccc(N=C2C(=Nc3ccc(OC)cc3)N(c3ccc(N(C)C)cc3)C(=S)N2c2ccc(OC)cc2)cc1	-6	67	nt	nt	-4	i	15	7
O=C(Nc1ccc(C(F)(F)F)cc1)c1cc(-c2cccnc2)nc2ccc(Br)cc12	3	25	-9	-40	-11	i	23	5
Nc1cc(N2CCOCC2)c(Cl)cc1[N+](=O)[O-]	3	9	nt	22	-3	i	1	-9
O=C(O)C(CO)(c1ccccc1)c1ccccc1	3	1	-12	-2	-7	i	9	8
COc1ccc(S(=O)(=O)Cc2ccc(C(=O)N3CCCC3)o2)cc1	1	-2	-16	9	5	i	0	2
CCOc1ccc(-n2nnc3c(=O)n(CC(=O)N4CCCc5ccccc54)cnc32)cc1	-15	-6	-13	6	-12	i	0	-7
CS(=O)(=O)c1ccc(Cl)c(NC(=O)CCN2C(=O)C3CC=CCC3C2=O)c1 (stereo unspecified)	nt	-3	2	3	nt	nt	0	0
Fc1ccccc1CNCC1CCCO1 (stereo unspecified)	8	nt	-5	4	-16	i	0	3
COc1ccc(NC(=O)CN(C)C(=O)Cc2ccc3c(c2)OCCO3)cc1	nt	-10	-5	-6	nt	i	-3	-1
O=C(NCC(c1ccco1)N1CCN(c2ccccc2F)CC1)C(=O)NC1CCCC1 (stereo unspecified)	nt	-12	0	3	nt	i	-2	-6
O=C(Cn1cnc2c(cnn2-c2ccc(Cl)cc2)c1=O)N1CCN(c2ccccc2)CC1	12	1	-8	-6	3	i	5	-5
COc1ccc(-c2cc(C(F)(F)F)nc(SCC(=O)N3CCOCC3)n2)cc1OC	6	15	-6	nt	0	i	-2	-1
CCn1c(=O)cc(SCC(=O)NCc2ccco2)c2ccccc21	8	nt	5	-54	7	i	2	-5
Cc1ncoc1C(=O)N1CCCC(C(=O)c2ccc(-c3ccccc3)c(F)c2)C1 (stereo unspecified)	-8	-2	0	7	4	i	5	-5
Cc1nnc(Cl)c2nn(-c3ccccc3)c(C)c12	12	9	-15	nt	11	i	0	4
NC(=O)C1(N2CCCCC2)CCN(C(=O)c2cccn3c(=O)c4cc(Cl)ccc4nc23)CC1	1	nt	3	21	4	i	0	2
NC(=O)N/N=C/C=C/c1ccccc1	-6	11	nt	-17	0	i	0	4
Cc1cccc(NC(=O)c2c(-c3ccccc3)noc2C)n1	16	-3	-8	-5	-5	i	-2	3
COC(=O)c1cccc(NC(=O)CSc2nnc(COc3cccc(C)c3)n2C)c1	-5	-1	-7	nt	2	i	5	2
O=C(COC(=O)c1cccc(Br)c1)Nc1ccc2[nH]c(=O)[nH]c2c1	nt	-10	-14	32	nt	i	0	0
O=C(O)CCNc1nc(-c2ccccc2)c2cc(Br)ccc2n1	2	1	nt	-4	-1	i	7	-4
CCCN1CCN(CC(=O)Nc2nnc(C)s2)CC1	0	-7	-5	-57	0	i	0	1
CN(C)S(=O)(=O)N1CCCC(C(=O)c2ccc(-c3ccccc3)c(F)c2)C1 (stereo unspecified)	-8	29	nt	-9	-8	i	-3	-12
CCN(CC)S(=O)(=O)c1cc(NC(=O)c2cccc(N3C(=O)CCC3=O)c2)ccc1Cl	nt	-13	nt	nt	nt	i	-2	-2

Continued; it opens with the four that closed the last part.
SMILES	PABP FP inh	CSC inhib	Yeast UUG start	HIV Env fusion	eIF4H FP inh	Rce1 inhib	MT1-MMP act inh	MT1-MMP act inh RFP
O=C(O)CCNc1nc(-c2ccccc2)c2cc(Br)ccc2n1	2	1	nt	-4	-1	i	7	-4
CCCN1CCN(CC(=O)Nc2nnc(C)s2)CC1	0	-7	-5	-57	0	i	0	1
CN(C)S(=O)(=O)N1CCCC(C(=O)c2ccc(-c3ccccc3)c(F)c2)C1 (stereo unspecified)	-8	29	nt	-9	-8	i	-3	-12
CCN(CC)S(=O)(=O)c1cc(NC(=O)c2cccc(N3C(=O)CCC3=O)c2)ccc1Cl	nt	-13	nt	nt	nt	i	-2	-2
Cc1c(CC(=O)NCC(=O)O)c(=O)oc2cc3c(cc12)CCC(C)(C)O3	2	-5	-2	20	3	?	nt	nt
COc1ccc(Cl)cc1NC(=O)C1CCCN(c2cc(C)nc3ncnn23)C1 (stereo unspecified)	-4	nt	-5	17	-2	i	8	-2
COc1ccc(OC)c(CN2C(=O)CCC2(C)C(=O)NC2CCCCCC2)c1 (stereo unspecified)	-2	-5	6	-38	2	i	5	2
COc1ccc(C2=NN(c3nc(C)cc(C)n3)C(=O)C2)cc1	-1	-9	nt	-5	6	i	4	2
Cc1cc(C(=O)CN2CCC(C)CC2)c(C)n1-c1ccccc1F	-3	-7	nt	10	-7	i	2	4
N#CC1=C(N)OC2=C(C(=O)CCC2)C1c1ccccc1 (stereo unspecified)	-4	-6	-6	-48	-2	i	5	-8
COc1cccc(C(=O)N2CCCC(Nc3ccc(C)c(C)c3)C2)c1 (stereo unspecified)	11	-4	-4	11	2	i	2	-1
COc1ccccc1NS(=O)(=O)c1ccccc1C#N	-3	1	11	nt	-8	i	-6	2
CCOC(=O)c1sc(C)c2c1NC(C)(c1cccs1)NC2=O (stereo unspecified)	23	-6	-19	23	-11	i	2	-7
Oc1ccc(/C=N/NC(=S)N/N=C/c2ccc(O)cc2)cc1	3	7	-27	-199	10	i	-7	-11
C#CCOCCOCCOCCNc1nc(N2CCOCC2)nc(N2CCN(C(=O)[C@H](CCCN=C(N)N)n3cc(C(N)[C@@H](C)CC)nn3)CC2)n1 (stereo partly specified)	nt	4	38	-7	nt	nt	0	1
CCN(NC(=O)C(O)(c1ccccc1)c1ccccc1)C(=O)c1ccccc1	-8	-7	nt	-10	-1	i	3	8
CCN(CC)C(=O)CSc1nnc2nnc3cc(C)ccc3n12	?	11	-10	7	?	i	-4	14
Nc1ncc([N+](=O)[O-])cc1S(=O)(=O)c1ccccc1	nt	-11	-23	0	nt	i	0	-3
O=C(c1ccoc1)N1CCC(CO)(CCc2ccccc2)CC1	-9	-3	-2	9	-12	i	-1	0
Cc1ccc(-c2cc(C(=O)NCc3ccccn3)c3ccccc3n2)cc1C	-2	9	-36	nt	6	i	0	-1
CCCCNC(=O)c1cc(C)nc2ccccc12	-1	10	-16	17	-8	nt	-4	1
C=CCN(CC=C)Cc1cc(=O)oc2cc(C)c(Cl)cc12	nt	nt	-16	14	nt	nt	1	-4
O=C(Nc1cccc(O)c1)c1cccc(S(=O)(=O)N2CCCCCC2)c1	6	nt	-1	-15	-10	i	7	-4
CN(CC1CCCO1)S(=O)(=O)c1ccc(C(=O)Nc2ccccc2F)cc1 (stereo unspecified)	5	-7	-6	3	-2	i	1	-1
CCOC(=O)C1=C(C)NC(C)=C(C(=O)OCC)C1C(=O)OC1CCOC1=O (stereo unspecified)	3	-7	-10	2	0	i	-1&-2	1&4
CC(C)(C)S(=O)N1Cc2cc(C(=O)O)nc(-c3cccc(-c4cc5ccccc5o4)c3)c2[C@H]1CCO (stereo partly specified)	nt	nt	-15	10	nt	nt	0	6
Cn1c(=O)c2c(nc(CN3CCC(C(N)=O)CC3)n2Cc2ccccc2F)n(C)c1=O	-7	-25	5	-5	-4	i	-2	2
CC1CCCN(C/C(O)=C(\C#N)c2nc3ccccc3[nH]2)C1 (stereo unspecified)	6	0	-8	nt	-3	i	0	3
O=S(=O)(Cc1ccccc1)Nc1cccc(F)c1	-10	-2	-9	-33	-12	i	0	0
Cc1nn(Cc2ccccc2Cl)c(C)c1NC(=O)c1cc(-c2ccc(F)cc2)on1	1	12	-6	-14	-2	i	4	1
Cc1ccc(N(CC(=O)NC2CCCCC2C)S(=O)(=O)c2c(C)noc2C)cc1 (stereo unspecified)	6	7	-12	20	2	i	-1	0
COC(=O)c1ccc(NC(=O)N2CCOCC2)cc1	2	nt	-9	-19	12	i	1	4
COC(=O)CC1C(=O)NCCN1C(=O)Nc1ccccc1 (stereo unspecified)	4	-5	0	-34	-1	i	1	4
COc1ccc(/C=N/NC(=O)c2cc(C3CC3)[nH]n2)cc1OC	1	-10	-8	-11	-4	i	2	0
Clc1cccc(CN2CCN(Cc3ccco3)CC2)c1	9	16	-2	0	6	i	3	-1
Cc1ccc(C(=O)CSc2ccccc2C(=O)O)cc1	nt	-3	18	-16	nt	i	-1	3
Cc1ccc(-n2ncc3c2CC(C)(C)CC3NC(=O)c2ccncc2)cc1 (stereo unspecified)	-4	-1	5	-66	-3	i	-4	-5
NC(=O)N/N=C/c1c(F)c(F)c(F)c(F)c1F	-1	-15	-25	-29	0	i	-2	1
